# DT40 TDP1 no CPT: qHTS for Inhibitors of human tyrosyl-DNA phosphodiesterase 1 (TDP1): qHTS in cells in absence of CPT; DT40 Tdp1-/- hTDP1 cells, no CPT, ATP luminescence, 48 h; Potency, µM (doses to about 46.2 µM), inactives show top-dose activity change, negative = growth inhibition, usual class: inhibitors; 420,000 tested, 15% active; also: nearly all actives have a fitted effect of over 55% in size
#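 Stably hTDP1-transfected Tdp1-null chicken DT40 cells were treated with library compounds minus camptothecin and grown for at least 48 hr at 37 °C, after which cellular ATP was quantified by luminescence.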
# GCN5L2 inh: qHTS Assay for Inhibitors of GCN5L2; Histone acetyltransferase KAT2A (Homo sapiens), Q92830; GCN5L2 HAT assay, ThioGlo1 CoA-SH fluorescence; Potency, µM (highest dose often 58.9 µM), inactives show top-dose activity change, negative = inhibition, actives largely listed as inhibitors; 390,000 tested, 0.21% active; AID 504327, 2011
# Target sequence (Q92830 whole entry, looked up): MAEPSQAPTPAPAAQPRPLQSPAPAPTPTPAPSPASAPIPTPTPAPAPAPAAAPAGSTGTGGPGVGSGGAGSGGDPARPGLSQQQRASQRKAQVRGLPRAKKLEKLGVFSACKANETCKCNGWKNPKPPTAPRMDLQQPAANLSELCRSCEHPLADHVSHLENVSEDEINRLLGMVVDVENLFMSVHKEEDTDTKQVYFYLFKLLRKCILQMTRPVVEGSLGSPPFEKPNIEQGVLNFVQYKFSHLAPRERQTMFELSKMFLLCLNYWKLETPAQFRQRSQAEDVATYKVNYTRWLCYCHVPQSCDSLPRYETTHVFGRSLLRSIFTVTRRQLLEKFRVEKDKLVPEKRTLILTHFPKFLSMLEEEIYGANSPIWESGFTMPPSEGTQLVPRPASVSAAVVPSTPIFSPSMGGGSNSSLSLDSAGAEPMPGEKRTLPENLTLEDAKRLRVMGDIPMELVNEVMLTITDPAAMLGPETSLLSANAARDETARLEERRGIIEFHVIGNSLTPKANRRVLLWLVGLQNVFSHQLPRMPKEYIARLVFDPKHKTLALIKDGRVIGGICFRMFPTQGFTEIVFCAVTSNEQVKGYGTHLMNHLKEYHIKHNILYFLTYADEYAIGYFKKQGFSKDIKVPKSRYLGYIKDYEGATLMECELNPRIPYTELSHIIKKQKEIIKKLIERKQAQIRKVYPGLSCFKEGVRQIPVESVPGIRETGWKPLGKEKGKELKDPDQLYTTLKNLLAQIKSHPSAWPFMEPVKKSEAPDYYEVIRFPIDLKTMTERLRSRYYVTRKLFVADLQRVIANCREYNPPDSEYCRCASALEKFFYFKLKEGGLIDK
#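 qHTS, 1536-well. 20nM enzyme, pH 7.5 HEPES/EDTA/Tween-20 buffer; 15 min compound preinc., RT. Start: 75uM H3(1-25), 70uM AcCoA, 50uM ThioGlo1. Read Ex340/Em540 at t=0 (autofluorescence flag) and t=20 min.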
# Numbers without * were called inactive; . = no result given; & = joins results of further samples. Calls follow the shape of the dose curve; as a rule, active = well fitted curve in the direction sought with a large enough effect; inconclusive = small, poorly fitted or top-dose-only effect, or another doubt; inactive = no such curve, though single readings can be large; an effect the other way counts as inactive or inconclusive. % is scaled to controls: 0 for no effect and ±100 for the full control effect; potency is read from the fitted curve at half-maximal effect. This is a subset, and most or all hits are left out here.
SMILES,DT40 TDP1 no CPT,GCN5L2 inh
Cc1ccc2oc(-c3ccc(C)c(NC(=O)/C=C/c4ccc(Cl)cc4)c3)nc2c1,.,0%
COC(=O)c1cc(=O)n(Cc2ccccc2)c(=NCc2ccccc2)s1,.,-3%
COc1ccc(-c2cc(C(F)(F)F)n3nc(C(=O)Nc4ccccc4SC)cc3n2)cc1OC,.,-3%
CC1(C)Cc2nc3nc(SCC(=O)NCc4ccccc4)n(-c4ccccc4)c(=O)c3cc2CO1,.,-6%
CCCSc1nc(C)nc2c1c(=O)n(C)c(=O)n2C,.,-9%
CCC(=O)NC(c1cc(Cl)c2ccccc2c1O)C1CC1 (stereo unspecified),.,-18%
O=C(CN1CCCCC1)N1CCN(C(=O)CN2CCCCC2)CC1,.,2%
COc1cc(OC)c(NC(=O)c2ccc(-n3cnc4cccnc43)cc2)cc1Cl,.,4%
CCC(CO)N=C1CC(C)(C)CC(=O)/C1=C(/O)CCCN1C(=O)c2ccccc2C1=O (stereo unspecified),-21%,2%
Cc1ccc(C)c(CN2C(=O)C3CCCN3c3ccc(S(=O)(=O)N4CCOCC4)cc32)c1 (stereo unspecified),.,4%
O=C(CCNS(=O)(=O)c1ccc2c(c1)CCCC(=O)N2)NCc1ccc(Cl)cc1,.,-3%
COc1ccc(NC(=O)/C=C/c2ccc(Cl)cc2)cc1,.,-16%
CCOc1nonc1C(=N)/C(C(C)=O)=C(\C)O,0%,0%
CCN(CC)CCNC(=O)c1ccc(-c2nc(CN3CCc4ccccc43)c(C)o2)cc1,.,1%
CCOc1ccc(Nc2sc(C(=O)c3cccc(OC)c3)c(N)c2S(=O)(=O)c2ccccc2)cc1,.,-4%
CC[C@H](C)[C@@H](C(=O)NCCCCCCCCCCC(=O)N1CCN(C(=O)OC(C)(C)C)CC1)n1cc(CCCCN=C(NC(=O)OC(C)(C)C)NC(=O)OC(C)(C)C)nn1,.,-9%
CCN(C(=O)CN1CCCc2ccccc21)c1c(N)n(Cc2ccccc2)c(=O)[nH]c1=O,.,-6%
CC12C(=O)N(c3ccc(C(=O)N4CCOCC4)cc3)C(=O)C1C1c3ccccc3C2c2ccccc21 (stereo unspecified),.,2%
Cc1ccc(CCNC(=O)CCS(=O)(=O)c2cc3c(cc2Cl)NC(=O)CO3)cc1,.,3%
CCN(CC)CC1CCN(c2ncc3ncnc(Nc4ccc(F)c(Cl)c4)c3n2)CC1,.,6%
Cn1c2ccccc2c(=O)c2c(=O)n(Cc3ccco3)c(-c3ccc(C(C)(C)C)cc3)nc21,.,-2%
CCc1ccc(NC(=O)CCNS(=O)(=O)c2ccc3c(c2)CCCC(=O)N3)cc1,.,4%
O=C(N/N=C/c1cccs1)c1cccc(NC(=O)c2ccc(Cl)cc2)c1,.,-1%
O=[N+]([O-])c1ccc(C23CC4CC(CC(O)(C4)C2)C3)cc1,.,-6%
CCCCNC(=O)C(c1ccc(OCC(=O)OC)c(C(=O)OC)c1)N(CCc1c[nH]c2ccccc12)C(=O)CCCCCN1C(=O)NC(c2ccc(-c3ccccc3)cc2)C(C(=O)OCc2ccccc2)=C1C (stereo unspecified),.,-1%
CS(=O)(=O)CCNCc1nc(-c2ccc3ncnc(Nc4ccc(OCc5cccc(F)c5)c(Cl)c4)c3c2)cs1,.,3%
CC(=O)Nc1ccc(S(=O)(=O)NCC2CCC(C(=O)NC(C)c3ccc4c(c3)OCCO4)CC2)cc1 (stereo unspecified),.,3%
Cn1nnnc1Sc1ncnc2scc(-c3ccc([N+](=O)[O-])cc3)c12,.,-7%
COc1cccc(C2C(C(=O)c3sc(C)nc3C)=C(O)C(=O)N2CCN(C)C)c1OC (stereo unspecified),.,0%
COc1ccccc1N1CCN(C(=O)CN2C(=O)COc3ccc(S(=O)(=O)N4CCC(C)CC4)cc32)CC1,.,1%
C=CCn1c(=O)c(C(=O)Nc2ccccc2OC)c(O)c2ccccc21,.,-2%
O=C(N/N=C/c1ccco1)c1cc(C2CC2)nc2ccccc12,.,-5%
CCCc1nn2c(=O)c(C(c3ccc(C)cc3)c3c(O)nc4sc(CCC)nn4c3=O)c(O)nc2s1,-5%,-25%
O=C(CC1Sc2ccccc2NC1=O)Nc1cccc(C(F)(F)F)c1 (stereo unspecified),.,-7%
CCc1ccc2c(c1)C1(NN=C(c3cccc4ccccc34)S1)C(=O)N2 (stereo unspecified),.,-8%
CCc1ccccc1NC(=O)CSc1nc(-c2ccccc2)nn1C(=O)c1cccc([N+](=O)[O-])c1,.,-3%
COc1ccccc1N1CCN(C/C=C/c2ccc(N(C)C)cc2)CC1,.,-10%
Cc1ccc(/C(C#N)=C\c2cn(C)c3ccccc23)cc1,.,-5%
Cc1ccc2c(Cl)cc(Cl)c(OCC(=O)Nc3cc(C)on3)c2n1,.,-3%
CCOc1cccc(-c2nnc3sc(-c4cc(OC)c(OC)cc4OC)nn23)c1,.,0%

# Rewritten bar-delimited: 20 of the compounds above
smiles | DT40 TDP1 no CPT | GCN5L2 inh
Cn1c2ccccc2c(=O)c2c(=O)n(Cc3ccco3)c(-c3ccc(C(C)(C)C)cc3)nc21 | . | -2%
CCc1ccc(NC(=O)CCNS(=O)(=O)c2ccc3c(c2)CCCC(=O)N3)cc1 | . | 4%
O=C(N/N=C/c1cccs1)c1cccc(NC(=O)c2ccc(Cl)cc2)c1 | . | -1%
O=[N+]([O-])c1ccc(C23CC4CC(CC(O)(C4)C2)C3)cc1 | . | -6%
CCCCNC(=O)C(c1ccc(OCC(=O)OC)c(C(=O)OC)c1)N(CCc1c[nH]c2ccccc12)C(=O)CCCCCN1C(=O)NC(c2ccc(-c3ccccc3)cc2)C(C(=O)OCc2ccccc2)=C1C (stereo unspecified) | . | -1%
CS(=O)(=O)CCNCc1nc(-c2ccc3ncnc(Nc4ccc(OCc5cccc(F)c5)c(Cl)c4)c3c2)cs1 | . | 3%
CC(=O)Nc1ccc(S(=O)(=O)NCC2CCC(C(=O)NC(C)c3ccc4c(c3)OCCO4)CC2)cc1 (stereo unspecified) | . | 3%
Cn1nnnc1Sc1ncnc2scc(-c3ccc([N+](=O)[O-])cc3)c12 | . | -7%
COc1cccc(C2C(C(=O)c3sc(C)nc3C)=C(O)C(=O)N2CCN(C)C)c1OC (stereo unspecified) | . | 0%
COc1ccccc1N1CCN(C(=O)CN2C(=O)COc3ccc(S(=O)(=O)N4CCC(C)CC4)cc32)CC1 | . | 1%
C=CCn1c(=O)c(C(=O)Nc2ccccc2OC)c(O)c2ccccc21 | . | -2%
O=C(N/N=C/c1ccco1)c1cc(C2CC2)nc2ccccc12 | . | -5%
CCCc1nn2c(=O)c(C(c3ccc(C)cc3)c3c(O)nc4sc(CCC)nn4c3=O)c(O)nc2s1 | -5% | -25%
O=C(CC1Sc2ccccc2NC1=O)Nc1cccc(C(F)(F)F)c1 (stereo unspecified) | . | -7%
CCc1ccc2c(c1)C1(NN=C(c3cccc4ccccc34)S1)C(=O)N2 (stereo unspecified) | . | -8%
CCc1ccccc1NC(=O)CSc1nc(-c2ccccc2)nn1C(=O)c1cccc([N+](=O)[O-])c1 | . | -3%
COc1ccccc1N1CCN(C/C=C/c2ccc(N(C)C)cc2)CC1 | . | -10%
Cc1ccc(/C(C#N)=C\c2cn(C)c3ccccc23)cc1 | . | -5%
Cc1ccc2c(Cl)cc(Cl)c(OCC(=O)Nc3cc(C)on3)c2n1 | . | -3%
CCOc1cccc(-c2nnc3sc(-c4cc(OC)c(OC)cc4OC)nn23)c1 | . | 0%

# The results go on:
SMILES,DT40 TDP1 no CPT,GCN5L2 inh
O=c1nc2ccccc2c2n1CC(CN1CCN(Cc3ccccc3)CC1)N2 (stereo unspecified),-8%,-20%
COc1nnnc2c1sc1nc(N3CCOCC3)c3c(c12)CC(C)(C)OC3,.,-8%
COc1ccc2[nH]c3c(c2c1)CCn1c-3nc2sc(C(=O)Nc3ccccc3)c(C)c2c1=O,.,-8%
NC(=O)c1cccc(-c2noc(-c3ccccc3F)n2)c1,.,-5%&-1%
CCc1nnc(NC(=O)CSc2nnc(-c3ccncc3)n2Cc2ccccc2)s1,.,-7%
CCOc1nc(C)cc(C)c1S(=O)(=O)c1cccc(C)c1,.,-1%
CCOC(OCC)OCC,.,9%
CCOc1ccc(-c2oc3cc(Cl)ccc3c(=O)c2O)cc1OC,.,-3%
CCCC[C@@H](NC(=O)[C@@H](Cc1cn(C(=O)OC)c2ccccc12)NC(=O)[C@H](CC(C)(C)C)NC(=O)N1[C@H](C)CCC[C@@H]1C)C(=O)O,.,8%
O=C(COC(=O)/C=C/c1ccco1)NCc1ccc2c(c1)OCO2,4%,-8%
O=C(O/N=C/c1ccc2c(c1)OCO2)c1ccccc1Cl,.,-21%
Cn1c(SCCSc2nnc(-c3ccccc3)n2C)nnc1-c1ccccc1,.,-8%
CC(C)CC1NC(=O)c2ccc(Cl)cc2-n2c1nc1ccc(F)cc1c2=O (stereo unspecified),.,-1%
O=C(NC(=S)Nc1ccccc1N1CCCC1)c1ccccc1Br,.,-3%
CCCCCCC(=O)Cc1cc(OC)c(OC)cc1C=C(C(=O)OCC)C(=O)OCC,.,-10%
CNC(=O)/C(=N\O)c1ccccc1,.,-1%
CC(C)CCn1c(N2CCN(Cc3ccccc3)CC2)nc2c1c(=O)[nH]c(=O)n2C,.,0%
COc1ccc(NC(=O)CCS(=O)(=O)c2cc3c(cc2C)NC(=O)CO3)cc1Cl,.,-10%
Cc1ccccc1C(=O)Oc1ccc(Sc2ccc(O)cc2)cc1,.,-10%
Cc1cc([N+](=O)[O-])c2c(c1C)C1C=CCC1C(c1ccccn1)N2 (stereo unspecified),.,-17%

# Reprinted at random: two records from the list.
SMILES,DT40 TDP1 no CPT,GCN5L2 inh
O=C(NC(=S)Nc1ccccc1N1CCCC1)c1ccccc1Br,.,-3%
CC(=O)Nc1ccc(S(=O)(=O)NCC2CCC(C(=O)NC(C)c3ccc4c(c3)OCCO4)CC2)cc1 (stereo unspecified),.,3%

# Other records:
SMILES,DT40 TDP1 no CPT,GCN5L2 inh
CN1CCN(c2cc(-c3cc(O)c4ncccc4c3)ccn2)CC1,.,-7%&-12%
Cc1ccc(-c2nsc3c(N4CCN(C(=O)c5ccco5)CC4)ncnc23)cc1,.,0%
COc1cc(/C=C(\C#N)c2nc3ccccc3c(=O)[nH]2)cc(OC)c1OC,.,-11%
CCCC(=O)C1=C(O)C(C(=O)OC)C(C)(C)CC1=NCCc1ccc(OC)c(OC)c1 (stereo unspecified),-21%,-4%
CCOC(=O)c1cnc2c(C)cccc2c1Nc1ccc(N2CCOCC2)cc1,.,-10%
c1cc(-c2nc3cc(Cc4ccc5oc(-c6ccncc6)nc5c4)ccc3o2)ccn1,.,0%
CCC/C(O)=C1\C(=O)CCCC1=NCCc1c(C)[nH]c2ccc(OC)cc12,-5%,0%
Oc1[nH]c2ccccc2c1N=Nc1ncnc2c1oc1ccccc12,.,1%
Oc1cc(NCc2ccc(Cl)cc2)cc2cccnc12,.,-9%&-3%
COc1ccc(OC)c(NC(=O)CN2C(=O)CC(C)Sc3ccccc32)c1 (stereo unspecified),.,0%
COC(=O)CCC(=O)Oc1ccc(OC(=O)CCC(=O)OC)cc1,.,0%
O=C(Nc1cccc(-c2nc3cc(Cl)ccc3o2)c1)c1ccc(F)cc1,.,-3%
COc1ccc(-c2nc(C)c(CCNC(=O)c3cc(OC)c(OC)c(OC)c3)s2)cc1OC,.,-15%
O=C1CCc2cc(S(=O)(=O)N3CCC(C(=O)NCc4ccccn4)CC3)ccc2N1,.,0%
CCc1ccc(S(=O)(=O)N2CCN(c3ccc(Cl)c(Cl)c3)CC2)cc1,.,-2%
CN(C)c1ccc(/C=C2\C(=O)Nc3ccccc32)c2ccccc12,.,1%
S=C(Nc1ccccc1)N1CCN(C(=S)Nc2ccccc2)CC1,.,-12%
COCCNC(=O)CCCn1c(=O)c2cc(OC)c(OC)cc2n(CC(=O)c2ccc(Cl)cc2)c1=O,.,-3%
O=C1CC(c2ccc(Cl)c(Cl)c2)CC(O)=C1C=NCCN1CCNCC1 (stereo unspecified),.,-3%
Cc1ccccc1N(CC(=O)NC(C)(C)C)C(=O)c1ccc(-c2ccccc2)[nH]1,.,-3%

# Screening results (PubChem)
